Source: PubChem (several laboratories)
YopH inh: YopH tyrosine phosphatase inhibitors, primary screen, biochemical, fluorescence Ex485/Em525 | YopH tyrosine phosphatase [Yersinia enterocolitica] | inhibition, %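 (about 10 µM by stock and volumes)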 | 140,000 tested, 0.16% active | AID 898, 2007;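 active = inhibition of 50% or more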;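 also: controls were vehicle for no effect and minimum signal wells for full effect; inactives centre near -20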
RecA splice inh: Mtb RecA intein splicing inhibitors, primary screen, biochemical, fluorescence, HTS | 290,000 tested, 0.75% active | inhibition, %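 (about 9 µM by stock and volumes)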 | cell-free RecA intein splicing | Protein RecA (Mycobacterium tuberculosis (strain ATCC 25618 / H37Rv)), P9WHJ3; in the data active = inhibition above about 30%;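 also: 0% = vehicle wells and 100% = reference inhibitor control wells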
Target sequence (P9WHJ3 whole entry, looked up, canonical isoform): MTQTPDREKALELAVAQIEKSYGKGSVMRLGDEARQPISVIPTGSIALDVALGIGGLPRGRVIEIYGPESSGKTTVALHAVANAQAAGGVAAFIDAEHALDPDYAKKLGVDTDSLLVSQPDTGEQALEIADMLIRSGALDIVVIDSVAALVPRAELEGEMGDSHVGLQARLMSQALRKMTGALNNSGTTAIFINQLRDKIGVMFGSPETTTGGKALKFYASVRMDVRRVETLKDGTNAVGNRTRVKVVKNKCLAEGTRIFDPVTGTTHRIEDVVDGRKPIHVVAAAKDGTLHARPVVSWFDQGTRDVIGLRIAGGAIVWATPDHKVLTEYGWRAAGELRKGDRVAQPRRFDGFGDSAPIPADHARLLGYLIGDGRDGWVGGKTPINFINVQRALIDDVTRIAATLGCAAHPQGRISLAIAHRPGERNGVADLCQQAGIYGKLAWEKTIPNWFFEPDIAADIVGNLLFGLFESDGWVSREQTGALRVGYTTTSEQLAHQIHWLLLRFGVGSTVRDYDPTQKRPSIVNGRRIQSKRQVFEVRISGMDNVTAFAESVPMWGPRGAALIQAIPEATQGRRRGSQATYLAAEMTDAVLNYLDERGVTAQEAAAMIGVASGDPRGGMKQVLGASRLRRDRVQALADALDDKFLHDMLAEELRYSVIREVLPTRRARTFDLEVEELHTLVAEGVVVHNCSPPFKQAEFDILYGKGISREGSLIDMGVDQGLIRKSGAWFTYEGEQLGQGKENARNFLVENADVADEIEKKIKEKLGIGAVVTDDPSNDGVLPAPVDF
Arbovirus inh: antivirals against arbovirus infection, primary screen, cell-based, full library, 10K replicate subset; arbovirus infection cell-based antiviral screen; inhibition, % at 10 µM; 200,000 tested, 0.37% active; AID 1251, 2008;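 active = inhibition from about 30%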;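 also: bluetongue infection of BSR cells; cell survival read as ATP light after 72 h; 0% = infected wells without compound and 100% = uninfected wells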
Mtb betalactam: beta-lactam sensitization of Mtb H37Rv, H37Rv; M. tuberculosis H37Rv growth with meropenem, percent inhibition; hits of this screen are not shown here; inhibition, % at 25 µM; 330,000 tested, 0.27% active;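 active = about 74% or more and at least 40 points above the plate without the antibiotic, then above 30% in a dose series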;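 also: growth measured after seven days incubation then overnight dye step; 0% = bacteria only wells and 100% = bacteria with antibiotic; twin plates without the antibiotic show which effects depend on it; some results filed as inactive read as strong as hits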
Mtb growth: M. tuberculosis H37Rv growth inhibitors, H37Rv strain (AID 1626); M. tuberculosis H37Rv growth inhibition; higher % means a stronger effect; inhibition, % at 10 µM; hits with a dose series show IC50 in µM; 220,000 tested, 0.95% active;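 active = confirmed in a dose series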;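 also: bacteria incubated seven days before Alamar blue readout; 0% = bacteria only wells and 100% = bacteria with antibiotic wells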
Arbovirus inh repeat: also measured in Arbovirus inh; calls as there; inhibition, %; measured here: 10K subset replicate screen; many hits read low in the repeat;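 first of two repeat runs on a subset; 0% = infected and 100% = uninfected wells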
Starred values were filed as active, the others as inactive; . = no result given. Not all compounds are listed, so the mix of outcomes need not match the whole.

SMILES | YopH inh | RecA splice inh | Arbovirus inh | Mtb betalactam | Mtb growth | others
CCC(C)NCCOCCOc1cc(C)c(Cl)c(C)c1 (stereo not given) | . | -2.8 | -21.1 | -5.9 | 4.7%
CC1Cc2ccccc2N1C(=O)NC1CC(=O)N(c2ccc3c(c2)OCCO3)C1 (stereo not given) | . | -1.1 | 2.2 | 3.1 | 5.0%
O=C(CSC1=NS(=O)(=O)c2cc(F)ccc2N1)NCc1ccccc1 | . | -0.4 | . | 0.7 | .
Clc1ccccc1/C=N/N1CCN(Cc2ccccc2)CC1 | . | 3.8 | . | -6.0 | .
COCC(=O)N(CCc1ccccc1)Cc1cc2cc(C)ccc2nc1Cl | . | 5.3 | . | 0.0 | .
Cc1ccc(C(=O)N/N=C\C2CC=CCC2)cc1[N+](=O)[O-] (stereo not given) | . | -2.4 | . | -7.9 | .
CCOC(=O)c1cncc(O)c1 | . | -0.2 | . | 27.3 | 8.5%
Cn1c(=O)c2c(ncn2CC(=O)Nc2nc(-c3ccc(F)c(F)c3)cs2)n(C)c1=O | . | 2.9 | . | -2.3 | -14.8%
C=CCNC(=O)c1onc(CSc2ccc(Cl)cc2)c1C(=O)NCC=C | . | 2.2 | . | -9.9 | -3.8%
Cn1c(SCC(=O)N2CCCCCC2)nc2c([nH]c3ccccc32)c1=O | -39.4 | . | -7.9 | 38.7 | 0.3% | Arbovirus inh repeat=-6.3
CCC(=O)Nc1nnc(CSCc2ccc(F)cc2)s1 | -12.8 | 0.4 | 4.7 | -9.4 | 10.5%
O=C(NNS(=O)(=O)c1ccccc1)c1cnn(-c2ccccc2)c1-n1cccc1 | -39.8 | -1.3 | 7.7 | 1.2 | -3.8%
O=c1[nH][nH]cc1C=Nc1ccc(Cl)cc1 | . | -0.9 | -26.3 | -9.3 | 4.2%
Cc1nc(COC(=O)c2cc(O)c3ccccc3c2O)cs1 | . | 56.0* | 0.1 | . | 1.2%
COc1cc(/C=C2/C(=O)NC(=O)N(c3ccc(C)cc3)C2=O)cc(OC)c1OC | . | -1.1 | . | 13.7 | -14.4%

Four compounds picked at random from the list so far, as already listed:
SMILES | YopH inh | RecA splice inh | Arbovirus inh | Mtb betalactam | Mtb growth | others
Cc1nc(COC(=O)c2cc(O)c3ccccc3c2O)cs1 | . | 56.0* | 0.1 | . | 1.2%
Clc1ccccc1/C=N/N1CCN(Cc2ccccc2)CC1 | . | 3.8 | . | -6.0 | .
CCOC(=O)c1cncc(O)c1 | . | -0.2 | . | 27.3 | 8.5%
C=CCNC(=O)c1onc(CSc2ccc(Cl)cc2)c1C(=O)NCC=C | . | 2.2 | . | -9.9 | -3.8%

Further results:
SMILES | YopH inh | RecA splice inh | Arbovirus inh | Mtb betalactam | Mtb growth | others
Cc1ccc(-n2nc3c(c2NC(=O)C(C)C)CS(=O)(=O)C3)c(C)c1 | . | 0.2 | . | -3.3 | .
Cc1ccc(C(=O)NCCONC(=O)c2ccc(C)cc2)cc1 | . | -1.5 | . | -8.4 | .
CN(C)CCCC1(O)c2ccccc2C=Cc2ccccc21 | 32.6 | -0.9 | -10.3 | -9.5 | -4.1%
CC(C)(C)NC(=O)c1ccncc1 | -5.6 | 1.6 | 2.3 | -8.7 | -0.3%
CCOc1cc2c3c(c1)C1(C(=O)N3C(C)(C)C=C2C)C(C#N)=C(N)Oc2cc(O)ccc21 (stereo not given) | -2.3 | -0.2 | -9.4 | -1.2 | 3.4%
CC(C)(C)c1ccccc1NC(=O)c1ccc(-n2cncn2)c([N+](=O)[O-])c1 | . | -6.0 | . | -14.4 | .
CC(C)N(C(=S)NCc1ccccc1)C(C)C | . | 0.9 | 6.0 | -2.8 | 3.7%
Cc1cc(-c2nnc(SCC(=O)Nc3ccccc3)n2C)no1 | . | -4.6 | . | 1.6 | 0.5%
O=C(CNc1cccc(S(=O)(=O)N2CCCC2)c1)Nc1cccc(Br)c1 | . | 3.8 | . | -7.0 | .
O=C1/C(=C/c2cccc(Br)c2)SC(=S)N1CCC(=O)N(CCO)c1ccccc1 | . | 1.1 | . | 69.8 | .
O=C(Nc1ccc(Cl)cc1)Nc1ccc(N2CCCC2)c(S(=O)(=O)Nc2ccccc2Cl)c1 | -20.6 | -0.3 | -12.2 | 1.5 | 34.4%
COc1cc(O)cc2cc3c(c(O)c12)C(=O)CC(C)(O)O3 (stereo not given) | . | . | . | -1.9 | -0.5%
COc1ccc(N2CCN(C(=O)c3ccc(S(=O)(=O)N4CCCC4)cc3)CC2)cc1 | . | -0.7 | . | -4.7 | .
Cc1ccc(N2CC(O)=C(c3ccccc3)C2=N)cc1 | . | -2.6 | 20.7 | -8.9 | 3.6%
Cc1ccsc1C(C(=O)NC(C)(C)C)N(Cc1ccco1)C(=O)c1csnn1 (stereo not given) | . | 0.9 | . | 2.8 | .
CC(C)Cc1nc(SCC(=O)Nc2nnc(CC(C)C)s2)n[nH]1 | . | -8.1 | . | -0.9 | -7.1%
O=C(Nc1ccc(-c2cn3ccsc3n2)cc1)C1CC1 | -24.6 | -3.1 | -7.0 | -3.1 | -13.1%
Nc1ccc(C(=O)c2cccs2)cn1 | . | 5.6 | . | 1.0 | -5.7%
Cc1nnc(SCC(=O)Nn2cnnc2)s1 | -30.6 | 0.5 | -5.0 | -10.2 | 3.2%
CS(=O)(=O)N(CC(=O)N1CCOCC1)c1ccccc1Br | . | -2.3 | . | -2.9 | .
NC(=O)C1CCN(C(=O)c2ccccc2SCC(=O)NCC2CCCCC2)CC1 | . | 0.8 | . | -1.0 | .
Cc1cc(=O)[nH]c2ccccc12 | -38.2 | -1.2 | -3.6 | -7.6 | -7.9%
O=[N+]([O-])c1ccccc1/C=N/n1c(C2CCCCC2)n[nH]c1=S | -11.8 | 0.0 | -12.4 | 1.4 | 2.2%
Cc1cc(OCC(=O)Nc2cnn(CCCC(=O)O)c2)ccc1Cl | . | 2.2 | . | 2.5 | .
NC(=O)c1cccc(CS(=O)(=O)c2ccc(Cl)cc2)c1 | . | -5.0 | . | -6.1 | .
CCOc1c(Cl)cc(CNCc2ccncc2)cc1OC | . | -0.4 | 17.3 | -3.4 | 1.6%
Cc1ccc2cc(C)c3nnc(SCC(=O)Nc4nc5c(s4)CCCC5)n3c2c1C | -7.0 | 7.8 | -7.9 | 8.0 | -2.2%
CCOC(=O)c1c(C)[nH]c(C)c1S(=O)(=O)NCc1ccccc1C | . | -0.7 | . | -8.6 | .
CSc1nc2ccc(NC(=O)c3ccc(Cl)s3)cc2s1 | . | . | 3.7 | 57.7 | .
CCCCN(C(=O)c1cc(Cl)nc2ccccc12)c1c(N)n(CCCC)c(=O)[nH]c1=O | . | -1.0 | . | -0.4 | .
Cc1cc(OCc2nn[nH]n2)c2c(C)c(CC(=O)O)c(=O)oc2c1 | -38.2 | 4.7 | -3.5 | -0.7 | -0.7%
COc1ccc(CCn2c(-c3ccc(F)cc3)nc3c(c(=O)c4ccccc4n3C)c2=O)cc1OC | . | 0.4 | . | -8.1 | 10.6%
CN1CCN(C(=O)C2=C[C@@H](c3ccccc3)C[C@@H](OCc3ccc(CO)cc3)O2)CC1 | . | -0.7 | -0.7 | -7.0 | -8.3%
Cc1cc(OC(C)C(=O)NCc2ccncc2)c2c(C)cc(=O)oc2c1 (stereo not given) | . | -1.8 | . | -5.2 | .
O=C(NCC(c1ccco1)N1CCc2ccccc21)c1ccccc1F (stereo not given) | . | 5.4 | . | -1.9 | .
CC(=O)Nc1ccc(NCN2C(=O)C3C4CCC(C4)C3C2=O)cc1 (stereo not given) | -13.7 | -2.9 | 0.1 | -21.3 | -1.7%
COc1ccc(OCC(=O)Nc2ccc(S(=O)(=O)N3CCCCC3)cc2)cc1 | . | -2.4 | . | -11.3 | .
Cn1c(SCC(=O)NCc2ccc(F)cc2)nc2c([nH]c3ccccc32)c1=O | . | -0.4 | -13.4 | 1.4 | 8.6%
COc1ccc(CNC(=O)Cn2cc3c(n2)CCCCC3)cc1 | 17.5 | 1.0 | -4.4 | -1.8 | 1.3% | Arbovirus inh repeat=-4.4
Cc1cc(Oc2ccc(-c3nnc(-c4ccccc4)o3)cc2[N+](=O)[O-])ccc1Cl | 2.4 | 0.8 | 12.7 | 0.1 | 5.6%
COC(=O)/C(=C\C=C\c1ccccc1)NC(=O)c1ccccc1 | . | 0.0 | -8.2 | -3.1 | 3.8%
Cc1nc(NC(=O)CN2CCN(c3ccccc3F)CC2)sc1C(=O)N(C)C | . | 1.4 | . | 0.3 | .
C[C@@H]1CCC2[C@](C)(CO)[C@@H](O)CC[C@]2(C)[C@@]12CCC(CO)(CCO)O2 (stereo not given in full) | . | 1.1 | . | 0.0 | .
O=C(NCc1ccc(F)cc1)c1cnn2ccccc12 | -8.6 | 3.3 | 2.3 | 0.3 | 11.0%
COc1ccccc1C(=O)CC(=O)c1ccccc1 | . | 7.0 | . | 46.3 | .

No new results follow: entries from further up.
SMILES | YopH inh | RecA splice inh | Arbovirus inh | Mtb betalactam | Mtb growth | others
Cc1nc(NC(=O)CN2CCN(c3ccccc3F)CC2)sc1C(=O)N(C)C | . | 1.4 | . | 0.3 | .
C[C@@H]1CCC2[C@](C)(CO)[C@@H](O)CC[C@]2(C)[C@@]12CCC(CO)(CCO)O2 (stereo not given in full) | . | 1.1 | . | 0.0 | .
O=C(NCc1ccc(F)cc1)c1cnn2ccccc12 | -8.6 | 3.3 | 2.3 | 0.3 | 11.0%
COc1ccccc1C(=O)CC(=O)c1ccccc1 | . | 7.0 | . | 46.3 | .

Following part.
SMILES | YopH inh | RecA splice inh | Arbovirus inh | Mtb betalactam | Mtb growth | others
Cn1c(SCC(=O)Nc2ccc3c(c2)OCCO3)nnc1-c1ccncc1 | . | 3.3 | . | 0.0 | .
O=C1NC(=O)N(c2ccccc2)C(=O)/C1=C\c1ccc([N+](=O)[O-])s1 | . | 0.4 | . | 99.8 | -1.3%
CCOC(=O)c1ccc(-n2ccnc2)c(NC(=O)c2ccc(Cl)cc2)c1 | -24.7 | 0.9 | 1.0 | -1.3 | -2.1%
Cc1ccc2cc(CCNC(=O)c3ccc4c(c3)OCO4)c(=O)[nH]c2c1 | -38.3 | -0.1 | -3.0 | -0.4 | 9.1%
COc1ccc(Cc2nnc(Nc3ccc(Cl)cc3)[nH]c2=O)cc1 | . | 10.8 | . | -0.8 | 2.2%
O=C(NCCN1CCOCC1)C(=O)NCC1OCCCN1S(=O)(=O)c1cc(F)ccc1F (stereo not given) | . | 0.5 | . | -6.8 | .
Cc1cc(=O)n(CCc2ccccc2)c(O)c1C#N | -54.1 | 3.9 | 7.1 | -6.6 | 5.6%
Cc1cc(C)c2oc(C(=O)N(Cc3ccccc3)c3ccccn3)cc(=O)c2c1 | . | 0.8 | . | -2.4 | 21.5%
Cc1ccnc(NC(=O)c2ccc(N3C(=O)CCC3=O)cc2)c1 | -32.5 | . | 4.6 | -0.4 | -14.3%
Cc1cc2n(c(=O)c1C#N)CCCN2c1cccc(Cl)c1 | 0.7 | -0.3 | 12.3 | -13.7 | -7.7%
Cc1ccc(-n2nc3c(=O)n(CCCC(=O)NCCc4ccccc4)nc(C)c3c2C)cc1 | . | -3.1 | . | -0.5 | .
CCn1c(SCC(=O)N/N=C/c2ccccc2OCC(=O)O)nnc1-c1ccccc1 | . | 1.8 | . | -5.1 | -16.6%
NC1C2CN3CCN(C2)CC1(c1ccccc1)C3 (stereo not given) | . | -0.3 | . | -8.4 | -1.2%
CCNC(=S)NN=C1CCC(C(C)(C)C)CC1 (stereo not given) | -1.9 | -1.2 | 4.5 | -3.5 | .
Cc1cc2nc(-c3ccc(SCC(=O)NC(C)C)nc3)[nH]c2cc1C | . | 2.1 | -13.8 | 1.0 | 1.7%
O=C(NC1CC1)C1CCN(C2CCN(C(=O)/C=C/c3cccc(F)c3F)CC2)CC1 | . | -2.3 | 4.2 | -4.5 | -3.1%
CN1C=CC=C/C1=C1\SC(=S)N(C2CCCCC2)C1=O | 5.9 | -5.4 | -0.3 | -4.3 | 3.6%
COCCNC(=O)C(c1ccc(Cl)cc1)N(C(=O)Cn1nnc2ccccc21)c1cccnc1 (stereo not given) | . | 2.6 | -8.0 | -8.2 | -3.2%
Cc1cc(C)nc(NS(=O)(=O)c2ccc(NC(=O)Cn3c(=O)oc4ccccc43)cc2)n1 | -50.0 | -1.8 | 13.3 | -8.5 | -5.9%
Cc1c(C)c2ccc(O[C@@H]3O[C@H](CO)[C@H](O)[C@H](O)[C@H]3O)c(C)c2oc1=O | . | 1.9 | . | -2.9 | .
CC1=CC(=C2N=C(c3ccccc3)OC2=O)C=C(C)O1 | -46.3 | -0.4 | 7.1 | 7.2 | 2.5%
Cc1ccc(NC(=O)C2OCCc3ccccc32)cc1 (stereo not given) | . | -4.0 | 3.1 | 2.4 | 0.4%
